# From PubChem
# Menin MLL FP FL = qHTS Assay for Inhibitors Targeting the Menin-MLL Interaction in MLL Related Leukemias: Competition With Fluorescein Labeled MLL-derived Peptide | 290,000 tested, under 10 active | Fluorescence polarization, fluorescein-MLL peptide displacement from menin | FP activity change, % at 61.4 µM; inconclusive = falling polarisation curve, or a change in total fluorescence; inactive = total fluorescence flat and polarisation flat or rising; no compound was filed as active; the % refers to the polarisation; negative = inhibition;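 note: % of control where 0% means no effect; inhibitors lower the polarisation; unlabelled MLL peptide was the positive control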
# TRPML1 inh = qHTS for Inhibitors of the Human Mucolipin Transient Receptor Potential 1 (TRPML1). TRPML1-inducible cells, Ca2+ dye fluorescence, FDSS; stronger effect = lower value; inhibition of EC80 agonist-evoked calcium signal. activity change, negative = inhibition, % (concentration not given with the values). 390,000 compounds, 0.02% hits. AID 624415, 2012; in the data active means activity change below about -50%; inconclusive means about -30% to -50%; inactive means above about -30%;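 note: stimulus is agonist 54-4 at its EC80 concentration; % is set by controls: 0 for no effect and ±100 for the full control effect; the text of the record puts the active cut at -80%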
# Target sequence (Q9GZU1 whole entry, looked up): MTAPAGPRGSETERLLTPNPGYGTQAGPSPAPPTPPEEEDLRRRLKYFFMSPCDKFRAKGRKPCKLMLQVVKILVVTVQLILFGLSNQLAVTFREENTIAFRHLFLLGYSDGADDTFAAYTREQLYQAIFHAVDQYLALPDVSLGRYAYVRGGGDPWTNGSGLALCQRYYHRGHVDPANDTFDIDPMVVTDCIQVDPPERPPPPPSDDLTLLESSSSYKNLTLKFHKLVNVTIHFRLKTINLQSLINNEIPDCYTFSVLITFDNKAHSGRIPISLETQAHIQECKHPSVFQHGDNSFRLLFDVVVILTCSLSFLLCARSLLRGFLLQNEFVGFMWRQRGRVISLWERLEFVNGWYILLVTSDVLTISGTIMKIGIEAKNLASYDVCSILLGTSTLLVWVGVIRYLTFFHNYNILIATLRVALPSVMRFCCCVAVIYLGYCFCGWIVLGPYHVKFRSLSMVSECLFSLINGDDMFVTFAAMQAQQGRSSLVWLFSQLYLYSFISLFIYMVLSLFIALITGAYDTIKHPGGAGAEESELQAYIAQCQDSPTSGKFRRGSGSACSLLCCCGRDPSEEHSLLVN
#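 TRPML1-DL cells, Tet-induced overnight (~16 h, 37 °C) at 1,500 cells/well, were loaded with Ca8 no-wash dye plus quencher for 45-90 min at room temperature. Compounds were pinned during FDSS kinetic reading; agonist 54-4 at EC80 (4 uM final) then added.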
# gsp antag = qHTS for Antagonists of gsp, the Etiologic Mutation Responsible for Fibrous Dysplasia/McCune-Albright Syndrome: qHTS. gsp-mutant cells, cAMP HTRF, 30 min; control for the full effect not named in the record. Potency, µM (doses to about 76.9 µM), for the others: at the highest dose activity change, negative = inhibition, actives largely listed as inhibitors. 340,000 compounds, 0.4% hits. AID 624288, 2012; active = falling curve of any shape with a large fitted effect; inconclusive = falling curve, mostly with a smaller effect; inactive = flat or rising curve; cell line not stated here;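 note: intracellular cAMP measured with PDE inhibitor Ro 20-1724 present during compound exposure; potency is the fitted concentration of half-maximal effect; % is set by controls: 0 for no effect and ±100 for the full control effect; nearly all actives have a fitted effect of over 65% in size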
#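 HTRF cAMP measurement after 30 min RT detection following 30 min, 37C compound treatment alongside […] (added as 300 uM solution) in G418-selected cells seeded at 2000/well and grown 16–24 h.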
# TRPML1 ag = qHTS for Agonists of the Human Mucolipin Transient Receptor Potential 1 (TRPML1); AID 624414, 2012; activation, % (no concentration beside the values); 410,000 compounds, 0.12% hits; Mucolipin-1 (Homo sapiens), Q9GZU1; TRPML1-expressing cells, Ca2+ dye fluorescence, FDSS; host cell line not named in the record; reference of the full effect not given here; in the data active = activation above about 50%; inconclusive = about 30% to 50%; inactive = below about 30%; note: 0% is about no effect; the text of the record puts the active cut at 80%
#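 TRPML1-DL cells, Tet-induced overnight (~16 h, 37 degrees C), loaded 45-90 min at room temperature with Ca8 no-wash calcium dye plus quencher. FDSS fluorescence: 10 s baseline, compound pin-transfer, 110 s agonist read, then EC80 54-4 (4uM final) and 110 s antagonist read.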
# ClpP mod = qHTS Assay for Activators of ClpP; ATP-dependent Clp protease proteolytic subunit (Bacillus subtilis (strain 168)), P80244; purified B. subtilis ClpP, FRET peptide cleavage, 20 min; Potency, µM (highest dose often 57.5 µM), inactives show at the highest dose activity change, negative = active; 340,000 compounds, 1.9% hits; AID 651965, 2013; active = well fitted falling curve with a large enough effect; inconclusive = small, poorly fitted or top-dose-only effect; inactive = no such curve, though single readings can be large or run the other way; note: potency is the fitted concentration of half-maximal effect; the source files actives as falling curves though it sought activators and does not explain the sign; nearly all actives have a fitted effect of over 65% in size; many hits overshoot -100%
# Target sequence (P80244 whole entry, looked up): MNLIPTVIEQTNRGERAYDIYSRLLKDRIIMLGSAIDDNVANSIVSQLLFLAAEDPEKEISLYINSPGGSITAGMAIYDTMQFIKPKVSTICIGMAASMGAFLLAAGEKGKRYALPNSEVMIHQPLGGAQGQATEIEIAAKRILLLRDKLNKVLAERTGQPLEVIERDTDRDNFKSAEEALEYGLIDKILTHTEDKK
#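 FRET quenching reversal measured ClpP activation: 10 microg/mL B. subtilis ClpP at pH 8 with the FRET-FV decapeptide, read at 430 nm after 320 nm excitation. The 20-min minus 0-min signal was scaled between DMSO/no-enzyme wells and ADEP (5.8 microM final).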
# gsp ag = qHTS for Agonist of gsp, the Etiologic Mutation Responsible for Fibrous Dysplasia/McCune-Albright Syndrome: qHTS; gsp mutant cells, cAMP HTRF, 30 min; control for the full effect not named in the record; Potency, µM (top dose mostly 76.9 µM), for inactives: top-dose activation (cAMP increase), most hits filed as activators; 340,000 compounds, 0.13% hits; AID 624287, 2012; active = well fitted activation curve with a large enough effect; inconclusive = small, poorly fitted or top-dose-only effect, or another doubt; inactive = no such curve, though single readings can be large or run the other way; cell line not stated here;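 note: phosphodiesterase inhibitor Ro 20-1724 added with compounds to block cAMP breakdown; potency is the fitted concentration of half-maximal effect; nearly all actives have a fitted effect of over 60% in size; about a fifth of the inactives were tested at one dose only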
#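 Cells stably selected in G418 were plated at 2000/well, grown 16-24 hr, then given compounds in DMSO with the PDE inhibitor […] (300 uM solution added) for 30 min at 37C; cAMP was read by HTRF.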
# An asterisk follows results filed as active; ? = inconclusive; . = not tested or not shown; [ ] = another dose, or the depositor's remark.
SMILES,Menin MLL FP FL,TRPML1 inh,gsp antag,TRPML1 ag,ClpP mod,gsp ag
O=C(CSCc1ccc(Cl)cc1)Nc1cccc(C(=O)Nc2ccccc2C(=O)O)c1,5.4,-5,-15%,-0.8,-0.6%,-1%
CC(C)c1ccc(/C=C/C(=O)N2CCOCC2)cc1,-2.6,-9,1%,-0.4,2.1%,1%[15.4 µM]
CC(C(=O)Nc1sc2c(c1C#N)CCCCC2)N1C(=O)c2ccccc2C1=O (stereo unspecified),4.4,-12,-24%,-0.2,-1.0%,21%[15.4 µM]
COCCNC(=O)CCc1nnc(Cc2ccc(-c3ccccc3)cc2)o1,-3.6,27,2%,0.2,-0.6%,-47%[inhibitor]
O=C(c1noc2c1CCc1ccccc1-2)N1CCOCC1,-0.3,-9,3%,2.4,-5.8%,?
CCOc1ccc(S(=O)(=O)N2CCN(C)CC2)cc1NC(=O)c1ccccc1F,-4.7,9,-24%,-0.1,.,-29%[15.4 µM]
O=C(CCNC(=O)c1ccccc1Cl)Nc1ccc(S(=O)(=O)Nc2ncccn2)cc1,-1.0,-5,8%,0.1,-3.2%,3%[15.4 µM]
CCc1ccc(CNC(=O)c2cc(-c3ccc(Cl)s3)nc3ccccc23)cc1,.,32,.,1.9,?,.
COc1ccccc1N1CCN(C(=O)C2CCN(S(=O)(=O)N3CCOCC3)CC2)CC1,0.6,10,-7%,-0.9,0.6%,-52%[inhibitor]
Cc1occc1-c1nnc(SCCCC(=O)c2ccc(F)cc2)n1C,0.4,0,-15%,1.7,-1.1%,8%
O=C(NC1CC1)C1=C[C@@H](C2CCCCC2)C[C@@H](OCCCCO)O1,1.1,1,5%,-0.4,-2.5%,.
CC1=NN(c2ccccc2)C(=O)/C1=C/c1c(O)n(-c2ccc(F)cc2)[nH]c1=O,-2.1,-9,-19%,1.0,-1.1%,-14%
NS(=O)(=O)c1ccc(NC(=O)COC(=O)c2ncc(Cl)c(Cl)c2Cl)cc1,.,17,?,1.1,.,-29%
CC(C)(CCO)NC(=S)NC1CC2C=CC1C2 (stereo unspecified),-0.1,-7,-1%,0.0,.,4%[15.4 µM]
C=CCNC(=O)CC(C)C(CCCCC)C(=O)O (stereo unspecified),0.1,-8,4%,-0.9,-2.3%,18%
COc1ccc(C2(O)CC3CCC(C2)N3c2cc(C)nc(-c3ccccc3)n2)cc1 (stereo unspecified),-0.3,-13,-19%,1.2,-2.6%,17%
Cc1ccc(C(=O)NCCN2C3=NC[C@H](Cc4ccc(O)cc4)N3C[C@H]2Cc2ccc(O)cc2)cc1Br,7.0,-15,-4%,1.1,-0.9%,.
O=c1c2ccccc2c(C=Nc2ccccc2O)c(O)n1-c1nccs1,?,11,-21%,-0.7,-0.5%,-24%
Nc1nnc(SCCCC(=O)c2ccc(F)cc2)s1,7.7,-18,-7%,1.3,0.1%,-18%
CC1CN(CCOc2ccc(Cl)c(Cl)c2)CC(C)O1 (stereo unspecified),?,9,10%,0.3,.,-11%
CCCCS(=O)(=O)Nc1ccc2c(c1)ncn2C1CCCCC1,1.5,-12,-11%,3.0,-0.9%,-16%
CCOC(=O)N1CCN(C(=O)/C=C/c2ccc(OC)c(OC)c2)CC1,1.1,3,-26%,0.3,-17%,14%
COc1cc(NS(=O)(=O)c2ccc(NC(=S)NC(=O)c3ccco3)cc2)ncn1,1.1,-3,-12%,-0.6,.,-1%[15.4 µM]
COc1ccc(Cc2nnc(NC(=O)CS(=O)(=O)c3ccccc3)s2)cc1OC,-4.4,4,-6%,1.4,0.1%,-13%
CCN1C(=O)[C@H]2[C@@H](c3ccc(OC)cc3)N[C@]3(CCCN(CC4CCCCC4)C3=O)[C@H]2C1=O,.,-6,.,-0.5,2.2%,-6%
Cn1c(N)c(-c2nc3cccnc3n2C)sc1=S,1.1,-4,-12%,1.3,-5.5%,-79%[inhibitor]
CCCCn1c(N)c(N(CCOC)C(=O)c2ccc(N3C(=O)c4ccccc4C3=O)cc2)c(=O)[nH]c1=O,.,-17,17%,0.2,0.4%,10%
O=C(O)/C=C/C(=O)Nc1ccc(SC(F)(F)F)cc1,-1.7,-14,6%,0.0,-1.4%,?
CCCCn1c(SCC(=O)N2CCCCC2C)nc2cc(S(N)(=O)=O)ccc21 (stereo unspecified),0.6,28,-1%,-0.8,-1.1%,-22%
COc1ccccc1C(=O)COC(=O)c1ccc(N(C)C)cc1,2.7,8,-13%,0.4,-4.4%,6%[15.4 µM]
CS(=O)(=O)c1ccccc1-c1nnc(NC(=O)C2=COCCO2)o1,.,2,7%,-0.1,3.7%,-1%[15.4 µM]
Clc1cccc(N2CCN(Cc3ccc(Br)o3)CC2)c1,-1.4,-11,-11%,1.6,-1.8%,18%
CCCOc1ccc(N2C(=O)C3ON(c4ccccc4)C(c4ccc(O)c(OC)c4)C3C2=O)cc1 (stereo unspecified),-1.0,-15,-4%,1.2,-1.5%,-3%[15.4 µM]
Cc1ccc(-c2nnc(NC(=O)c3ccco3)s2)cc1,5.0,-14,-12%,0.6,.,?
CCn1nc(C)c2c(-c3ccccc3)cc(=O)n(C(C)C(=O)NCCC(C)C)c21 (stereo unspecified),.,-4,.,1.2,4.1%,.
Cc1ccc(C)c(Oc2ccc(S(=O)(=O)N3CCN(C)CC3)cn2)c1,.,32,6%,0.3,1.4%,-9%[15.4 µM]
NC(=O)CC(NC(=O)Cc1cccc2ccccc12)c1ccc(N2CCc3ccccc3C2)c([N+](=O)[O-])c1 (stereo unspecified),-0.5,7,-21%,0.4,0.3%,.
Cc1ccc(COC(=O)CCCN=C2NS(=O)(=O)c3ccccc32)cc1,.,-15,-13%,-0.7,?,-2%
COc1ccc(CCNS(=O)(=O)c2cc3c4c(c2)CCN4C(=O)CC3)cc1,.,-26,-13%,0.2,-2.4%,10%[15.4 µM]
CC(C)Oc1ccc(NC(=O)CCC(=O)O)cc1,5.8,-12,-1%,0.2,0.1%,6%
COc1cccc(NC(=O)CN2C(=O)NC(Cc3c[nH]c4ccccc34)C2=O)c1 (stereo unspecified),.,-6,?,1.4,.,-46%[inhibitor]
CO/N=C/C(NC(=O)c1ccc(C(F)(F)F)cc1)C(=O)OC (stereo unspecified),0.0,9,2%,-1.4,-1.5%,19%[15.4 µM]
CCOc1ccc(CNC(=O)C2CCN(S(=O)(=O)c3c(C)noc3/C=C/c3ccc(C)cc3)CC2)cc1OC,.,-1,.,0.7,2.8%,.
O=C(OCC(=O)N1CCc2ccccc2C1)c1cc(=O)[nH]c2ccccc12,1.0,6,8%,1.5,-11%,2%
COc1ccc(C(=O)NC2=C(C#N)CCC2)cc1OC,-7.9,8,7%,0.1,0.8%,-3%
CC(C)(C)c1cc(N)on1,1.4,-9,2%,0.2,-1.6%,2%
Cc1cc(NC(=O)CSc2n[nH]c(CC(C)C)n2)no1,2.1,8,13%,4.5,1.2%,-8%
O=C(CSc1nc2c([nH]c3ccccc32)c(=O)n1-c1ccccc1F)Nc1cccc(C(F)(F)F)c1,.,48,.,1.8,?,.
COCCOC(=O)c1c(C)oc2ccc(NS(=O)(=O)c3ccc(C)cc3)cc12,4.9,8,-6%,-0.4,-1.6%,-63%[inhibitor]
COC(=O)C1=C(C)N(C)C(C)=C(C(=O)OC)C1c1ccc(Cl)cc1,-0.7,4,-4%,2.3,3.7%,12%
C[C@@H]1CN([C@H](C)CO)C(=O)Cc2cc(NS(=O)(=O)c3cn(C)cn3)ccc2O[C@H]1CN(C)S(=O)(=O)c1ccc(Cl)cc1,.,25,17%,-0.8,-0.3%,.
Cc1c(C(=O)N2CCN(S(C)(=O)=O)CC2)oc2ccccc12,-1.8,14,-2%,0.4,-2.9%,1%
CCOc1ccc(NC(=O)C(=O)NCCN2CCN(C(=O)c3ccc(C)cc3)CC2)cc1,-0.2,7,0%,0.5,.,1%
Cc1csc(=O)n1CCC(=O)OCC(=O)NNC(=O)c1ccc(Cl)cc1,.,-7,4%,-0.2,-2.8%,-2%
CCc1nnc(N/N=C/c2cc(Br)c(O)cc2O)n1N,8.8,11,-24%,-0.6,.,-17%
O=C(CCCOc1ccc(Cl)cc1Cl)N1CCc2ccccc2C1,1.4,28,-17%,5.1,-4.3%,-49%[inhibitor]
Cc1n[nH]c(C)c1CS(=O)(=O)c1ccccc1,2.3,-21,-1%,-0.2,.,-26%[15.4 µM]
O=C1CCCN1CCC(=O)N1CCCC(CO)(Cc2ccccc2)C1 (stereo unspecified),1.4,-9,7%,-0.2,-1.4%,?
O=C(N/N=C/c1ccc(N2CCOCC2)s1)c1ccc(NS(=O)(=O)c2cccs2)cc1,?,-12,-21%,-0.7,-4.4%,5%
Cc1cc(/C=N/NC(=O)c2nn(C)cc2Cl)c(C)n1-c1cccc(Br)c1,0.9,-17,-6%,0.4,-7.5%,-2%[15.4 µM]
CCOc1ncccc1C(=O)Nc1nnc(C2CC2)s1,-0.5,-10,-8%,0.0,.,13%[15.4 µM]
CCOc1ccc(CCNC(=O)c2cnc3sc(N(CC)CC)nn3c2=O)cc1OCC,.,-1,.,1.3,?,.

# One compound at a time (already shown). Screens in order: Menin MLL FP FL, TRPML1 inh, gsp antag, TRPML1 ag, ClpP mod, gsp ag
# O=C(CCNC(=O)c1ccccc1Cl)Nc1ccc(S(=O)(=O)Nc2ncccn2)cc1 in the list: -1.0, -5, 8%, 0.1, -3.2%, 3%[15.4 µM]
# CCCCS(=O)(=O)Nc1ccc2c(c1)ncn2C1CCCCC1 in the list: 1.5, -12, -11%, 3.0, -0.9%, -16%
# O=C(OCC(=O)N1CCc2ccccc2C1)c1cc(=O)[nH]c2ccccc12 in the list: 1.0, 6, 8%, 1.5, -11%, 2%

# 3 entries already listed, sorted by molar mass, descending:
SMILES,Menin MLL FP FL,TRPML1 inh,gsp antag,TRPML1 ag,ClpP mod,gsp ag
CCOc1ccc(CNC(=O)C2CCN(S(=O)(=O)c3c(C)noc3/C=C/c3ccc(C)cc3)CC2)cc1OC,.,-1,.,0.7,2.8%,.
CCOc1ccc(NC(=O)C(=O)NCCN2CCN(C(=O)c3ccc(C)cc3)CC2)cc1,-0.2,7,0%,0.5,.,1%
CCOc1ncccc1C(=O)Nc1nnc(C2CC2)s1,-0.5,-10,-8%,0.0,.,13%[15.4 µM]
